# Assay outcomes: PubChem, National Center for Advancing Translational Sciences (NCATS)
# PINK1 expr mod – PINK1 expression modulation; 410,000 compounds, 0.2% hits; AID 624263; Potency, µM (series often up to 76.6 µM), for inactives: at the highest dose activation (PINK1 increase), usual class: activators; PINK1 immunofluorescence, high-content cytometry, 24 h; active = well fitted activation curve with a large enough effect; inconclusive = small, poorly fitted or top-dose-only effect; inactive = flat fitted curve, though single readings scatter; cell line not stated here;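 further: potency means the concentration at half of the fitted maximal effect; % of control where 0% means no effect; nearly all actives have a fitted effect of over 65% in size; a mitochondrial uncoupler was the plate control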
#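 Readout is PINK1 immunofluorescence, quantified alongside mitochondrial, cell and nuclear markers by laser-scanning microplate cytometry. Cells from a stable line were exposed to compound titrations (5 concentrations) for 24 hours, with CCCP controls.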
# TRPML1 agonist – agonists of human TRPML1 channel; Q9GZU1; TRPML1-expressing cells, Ca2+ dye fluorescence, FDSS; host cell line not named in the record; reference of the full effect not given here; activation, % (concentration not given with the values); 410,000 compounds, 0.12% hits; AID 624414; in the data active = activation above about 50%; inconclusive = about 30% to 50%; inactive = below about 30%; further: 0% is about no effect; the text of the record puts the active cut at 80%
# Target sequence (Q9GZU1 whole entry, looked up): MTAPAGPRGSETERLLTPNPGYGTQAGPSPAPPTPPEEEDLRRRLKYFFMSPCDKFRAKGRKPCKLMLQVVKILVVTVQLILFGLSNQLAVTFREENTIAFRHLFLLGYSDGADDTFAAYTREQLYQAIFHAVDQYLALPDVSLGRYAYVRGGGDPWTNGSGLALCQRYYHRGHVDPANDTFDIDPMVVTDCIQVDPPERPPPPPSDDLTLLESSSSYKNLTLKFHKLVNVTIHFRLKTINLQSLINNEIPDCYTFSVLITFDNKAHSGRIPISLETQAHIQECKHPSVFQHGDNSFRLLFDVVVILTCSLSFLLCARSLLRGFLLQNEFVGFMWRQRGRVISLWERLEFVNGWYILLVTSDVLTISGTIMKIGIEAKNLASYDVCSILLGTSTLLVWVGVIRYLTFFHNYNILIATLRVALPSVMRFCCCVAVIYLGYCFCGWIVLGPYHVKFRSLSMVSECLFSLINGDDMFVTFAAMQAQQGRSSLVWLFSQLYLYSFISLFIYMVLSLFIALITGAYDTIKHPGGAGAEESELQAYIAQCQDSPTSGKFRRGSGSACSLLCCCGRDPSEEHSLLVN
#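 Agonist activity was taken from a 110 s kinetic Ca2+ dye read on the FDSS after pinning compounds onto TRPML1-DL cells. The cells were seeded at 1,500/well with Tet inducer, incubated about 16 h, then dye-loaded at room temperature.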
# D2 agonist – agonists of human D2 dopamine receptor (beta-arrestin) | DiscoveRx PathHunter D2 beta-arrestin, luminescence, 90 min; 100% = 57 uM dopamine signal | P14416 | 360,000 compounds, 0.084% hits | activation, % (test concentration not listed); in the data active = activation above about 40%; inconclusive = about 15% to 40%; inactive = below about 15%; further: compound concentration not given in the record; the text of the record calls up to 30% inactive
# Target sequence (P14416 whole entry, looked up): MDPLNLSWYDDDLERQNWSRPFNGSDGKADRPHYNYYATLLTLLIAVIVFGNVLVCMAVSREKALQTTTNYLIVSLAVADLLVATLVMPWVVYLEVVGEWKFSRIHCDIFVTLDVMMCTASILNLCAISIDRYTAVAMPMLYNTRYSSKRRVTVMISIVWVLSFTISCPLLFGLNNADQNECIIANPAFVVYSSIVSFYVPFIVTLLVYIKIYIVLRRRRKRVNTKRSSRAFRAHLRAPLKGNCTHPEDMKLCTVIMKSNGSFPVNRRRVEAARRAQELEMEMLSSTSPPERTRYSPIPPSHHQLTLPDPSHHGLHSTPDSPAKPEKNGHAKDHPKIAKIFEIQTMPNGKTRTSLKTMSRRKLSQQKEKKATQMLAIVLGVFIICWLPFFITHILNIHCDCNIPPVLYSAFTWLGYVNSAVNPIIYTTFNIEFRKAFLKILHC
#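 Agonist mode: compounds alone added to overnight-plated D2 PathHunter cells for 90 min at 37 C, with 57 uM final dopamine (EC100) defining full response. Beta-arrestin recruitment detected by chemiluminescent reagent, read after 1 h at ambient temperature.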
# TRPML1 blocker – human mucolipin-1 channel inhibition; Q9GZU1; TRPML1-inducible cells, Ca2+ dye fluorescence, FDSS; active compounds read low; inhibition of EC80 agonist-evoked calcium signal; activity change, negative = inhibition, % (no concentration beside the values); 390,000 compounds, 0.02% hits; AID 624415; in the data active means activity change below about -50%; inconclusive means about -30% to -50%; inactive means above about -30%;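 further: stimulus is agonist 54-4 at its EC80 concentration; on the % scale 0 is the no-effect control and ±100 the full control effect; compound concentration not given in the record; the text of the record puts the active cut at -80%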
#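 TRPML1-DL cells, Tet-induced overnight (~16 h, 37 °C) at 1,500 cells/well, were loaded with Ca8 no-wash dye plus quencher for 45-90 min at room temperature. Compounds were pinned during FDSS kinetic reading; agonist 54-4 at EC80 (4 uM final) then added.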
# Six1-Eya2 inh – Six1/Eya2 interaction inhibition; 360,000 compounds, 0.56% hits; Q15475+O00167; AlphaScreen GST-Six1/His-Eya2 binding, biochemical; active compounds read low; control for the full effect not named in the record; activity change, % (concentration not given with the values); in the data active = activity change below about -65%; inconclusive = about -30% to -65%; inactive = above about -30%; further: on the % scale 0 is the no-effect control and ±100 the full control effect
#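 Homogeneous AlphaScreen proximity assay pairing GST-Six1 with His-tagged Eya2 (added as 5X mix: 250 nM and 500 nM) in 50 mM Tris pH 8.0, 300 mM NaCl, 1 mM TCEP. Glutathione donor and nickel acceptor beads; 1 h, 37 °C, dark.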
# CtBP-E1A inh – blocks the CtBP interaction with E1A. activity change, % (no concentration beside the values). 340,000 compounds, 0.49% hits. AlphaScreen GST-E1A/His-CtBP binding, 1536-well; active compounds read low; control for the full effect not named in the record; in the data active means activity change below about -65%; inconclusive means about -30% to -65%; inactive means above about -30%; further: on the % scale 0 is the no-effect control and ±100 the full control effect
#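 Protein mix (5X: 125 nM each GST-E1A, His-CtBP) was incubated with pinned compound 2 h at 37 deg C in dark, in 50 mM Tris pH 8.0 buffer with 300 mM NaCl. Glutathione donor and nickel acceptor beads followed; AlphaScreen signal read after 1 h.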
# * = called active by the depositor; u = inconclusive; x = not tested or not shown; & = joins results of further samples; [ ] = dose if it differs, or a comment.
SMILES,PINK1 expr mod,TRPML1 agonist,D2 agonist,TRPML1 blocker,Six1-Eya2 inh,CtBP-E1A inh
O=S(=O)(Nc1ccc(-c2ccc(N3CCCC3)nn2)cc1)c1cc(F)ccc1F,0.9%,-1.0,x,-18,x,x
[O-]/C(=C(\C(=S)NCc1ccccc1)[n+]1ccccc1)c1ccc(Cl)s1,3.8%,-0.6,-2.3,-8,-16,-14
CCc1cc(C(=O)OC)c(NC(=O)CC2SC(=NC)N(C)C2=O)s1 (stereo not drawn),7.1%,-0.9,1.7,-7,1,5
COc1ccc(-n2c(Cc3cccn3C)nnc2SCC(=O)Nc2ccccc2OC)cc1,0.7%,-0.1,-6.8,-5,-12,-5
COC(=O)C1CCN(Cc2ccc(C)cc2)CC1,0.0%,-0.9,u,-5,14,-5
Cc1ccc2c(COC(=O)C3=COCCO3)cc(=O)oc2c1,0.9%,0.5,2.4,-1,22,-9
O=C(NCCC1CCCCN1S(=O)(=O)c1cccs1)C(=O)Nc1ccc(F)cc1 (stereo not drawn),-0.4%,0.4,8.3,17,5,0
CN(C)S(=O)(=O)c1cc(C(=O)NCc2ccccc2)c(Cl)cc1Cl,-0.4%,0.5,3.5,3,2,x
COC(=O)c1cc(NC(=O)COC(=O)C2CCC2)cc(C(=O)OC)c1,6.5%,-0.8,-0.1,8,-15,-11
COCc1c(C#N)c(NCCc2ccccc2)nc(C)c1[N+](=O)[O-],0.2%,0.7,-2.6,7,-5,1
COc1cccc2[nH]c(C(=O)NCC3CCCO3)cc12 (stereo not drawn),-1.3%,-0.5,-2.0,-6,19,3
CC(C)Oc1ccc(S(=O)(=O)N2CCOCC2)cc1NC(=O)Cc1ccsc1,-0.4%,3.2,0.1,5,-3,-7
O=[N+]([O-])c1cccc2[nH]ncc12,-1.4%,0.7,1.5,14,5,-3
Oc1ccc(NC(=S)N=Nc2c(O)[nH]c3ccc(Br)cc23)cc1,-1.5%,-0.4,-5.3,-15,u,u
CC(C)(C)NC(=O)CSc1nc2cc(S(=O)(=O)N3CCCCC3)ccc2o1,-0.1%,-0.2,-3.1,71,2,-1
CCOC(=O)CSc1nc2ccccc2c(=O)n1CC1CCC(C(=O)NCc2ccco2)CC1 (stereo not drawn),26%[38.3 µM],1.7,1.7,0,-2,-4
CC(=O)N1c2ccc(S(=O)(=O)N(C)CC(=O)N(Cc3ccccc3)C(C)C)cc2CC1C (stereo not drawn),-1.2%,-0.1,x,6,x,x
Cn1cc[nH]c1=S,-0.4%&0.4%,-1.0&-0.3,-3.9,5,1,1
CCCCNC(=O)CCNC(=O)c1ccc(C(C)(C)C)cc1,1.7%,-0.4,-2.6,4,-3,1
COCC(=O)Nc1cc(OC)ccc1OC,0.2%,0.2,-2.2,38,16,0
CCO/C=C1/C(=O)N(C(C)=O)c2ccccc21,-28%[38.3 µM],-0.8,-5.5,6,-2,-2
CC(=O)N1CCCc2ccc(NC(=O)c3ccc(C(F)(F)F)cc3)cc21,-0.6%,3.0,x,-2,x,x
CC(C)(C)c1ccc(C(=O)NC(=S)N2CCCC2)cc1,0.9%,1.0,-2.8,-27,-8,-23
O=C(Cc1ccc(Cl)cc1)NCCc1cnc[nH]1,-0.4%,0.3,-5.4,-2,-5,2
Clc1cccc(OCCN2CCNCC2)c1,-0.6%,0.2,5.5,23,-5,x
COc1ccc(CC(=O)OCN2C(=O)c3ccccc3C2=O)cc1,0.9%,0.0,0.0,-11,-2,8
O=C(NCCN1CCOCC1)c1ccc2ccccc2n1,6.1%[38.3 µM],0.9,-0.8,-6,3,4
CC(C)N1C(=O)c2ccc(C(=O)O)cc2C1=O,-2.3%,-0.3,-4.4,15,-1,9
O=C(O)Cn1nnnc1-c1ccc(F)cc1,2.8%[38.3 µM],0.6,2.8,-16,5,1
Cc1cc(C)cc(NC(=O)C2CCCN(c3ncccn3)C2)c1 (stereo not drawn),2.9%,2.3,3.5,22,15,1
CCOC(=O)C1CCN(C(=O)COC(=O)c2cccc(NS(=O)(=O)c3ccccc3)c2)CC1,4.2%,0.7,-0.5,-16,0,2
CCOc1ccc(OCc2ccc(C(=O)NCc3ccncc3)o2)cc1,-6.7%[38.3 µM],-0.5,1.5,9,-4,10
CCN(CC)CCN(C(=O)CCOc1ccccc1)c1nc2c(F)cc(F)cc2s1,23%,1.6,-4.0,39,-4,-3
COc1ccc(-c2onc(C)c2C)cc1S(=O)(=O)N(C)Cc1ccccc1,-0.1%,5.6,x,43,x,x
Cn1c(SCC(=O)Nc2ccc3nc(SCC(=O)N4CCCC4)sc3c2)nnc1-c1ccc(N)cc1,5.0%,0.2,1.7,19,-1,-14
Cc1nn(-c2ccccc2)c(C)c1/C=N/N1CCN(c2ccccn2)CC1,-0.9%,-0.9,9.2,1,-4,16
CCOC(=O)c1c(NC(=O)CSc2nnc(-c3ccc(Cl)cc3)o2)sc2c1CCC2,1.2%,0.0,-2.1,-5,22,0
COc1ccc(NC(=O)Nc2sc(NS(=O)(=O)c3ccccc3)nc2C)cc1,-0.7%,0.4,u,14,-8,58
CC1(C)C(=O)Nc2ccccc2N1C(=O)COC(=O)Cn1cnc2ccccc2c1=O,-4.3%,-0.4,-2.2,27,2,6
O=C(O)/C(=C\c1ccc(F)cc1)c1ccc(-c2ccccc2)cc1,-2.0%,-0.8,1.3,2,-27,4
CCOC(=O)Cc1csc(NC(=S)NC(=O)c2ccc(C)cc2)n1,1.5%,2.8,-10.0,1,-14,x
Cc1c(C(=O)N(C)C2CCCCC2)sc2ncnc(N3CCN(c4ccccc4)CC3)c12,1.8%,1.0,-1.3,6,-22,x
COc1cc(Cl)c(C)cc1NC(=O)c1cc2c(=O)oc3ccccc3c2s1,-0.4%,-0.6,x,1,x,x
Cc1cc(C=O)c(C)n1-c1ccc(N2CCCC2)c([N+](=O)[O-])c1,0.3%,-1.4,-1.6,1,-5,-1
COC(=O)[C@@]1(C)[C@H]2C(=O)N(Cc3ccccc3)C(=O)[C@H]2[C@H]2CN=C(SCC(=O)c3ccccc3)N21,-1.8%,2.1,0.0,0,2,7
CNc1ncc(Cc2ccccc2)s1,-0.9%,-1.0,-8.0,23,-5,2
COc1ccc(OC)c(/C=N/NC(=O)c2nnn(-c3nonc3N)c2-c2cccs2)c1,3.0%,-1.4,-3.0,0,9,3
Cc1ccc(OCC(=O)Nc2ccc3[nH]c(=O)sc3c2)cc1,5.9%,-0.7,x,-21,x,x
O=C(NNc1ncnc2ccccc12)c1cccc(Cl)c1,0.7%,0.0,-3.5,2,-3,1
CC(OC(=O)COc1cccc2c1OC(C)(C)C2)C(=O)Nc1ccc(S(N)(=O)=O)cc1 (stereo not drawn),-1.4%,0.4,2.4,-2,-3,15
COc1ccc(C(=O)NCCN2CCCC2)cc1OC,-1.8%,1.5,-0.6,-12,2,-6
COC(=O)C(Cc1ccc(O)cc1)NC(=O)c1ccc2c(c1)OCCO2 (stereo not drawn),1.5%,-0.4,1.0,13,6,1
COc1cc(OC)c(NS(=O)(=O)c2cccc(C(=O)OCC(=O)NCC3CCCO3)c2)cc1Cl (stereo not drawn),4.4%,0.1,-0.2,-7,-4,1
Cc1ccc(C2=NN(C(=O)CCC(=O)O)C(c3cn(-c4ccccc4)nc3-c3ccc(C)cc3)C2)cc1 (stereo not drawn),0.3%,-0.3,-1.4,13,1,9
COc1ccc(F)cc1C(=O)C1CCCN(Cc2c(C)n(C)n(-c3ccccc3)c2=O)C1 (stereo not drawn),1.3%,-0.6,-3.2,8,10,4
CCc1cccc2c(C(=O)CN3C(=O)NC4(CCCCCC4)C3=O)c[nH]c12,2.2%,0.4,1.1,-15,0,4
CC(=O)ON1C(C)(C)CC(OC(=O)c2ccccc2)CC1(C)C,-1.0%,1.7,-1.5,42,5,4
COc1ccc(C(=O)NCC(=O)OCc2cccc(Br)c2)cc1,10.0%[38.3 µM],1.0,0.6,-5,5,8
O=C(O)CSC1c2ccccc2C(=O)N1Cc1ccccc1 (stereo not drawn),0.9%,0.9,-4.0,-10,9,1
Cc1cc(C(=O)CSC(C)c2nc3ccccc3c(=O)[nH]2)c(C)n1C (stereo not drawn),-0.5%,-0.5,-1.7,19,2,4

# In the list so far, these contain a tert-butyl group:
SMILES,PINK1 expr mod,TRPML1 agonist,D2 agonist,TRPML1 blocker,Six1-Eya2 inh,CtBP-E1A inh
CC(C)(C)NC(=O)CSc1nc2cc(S(=O)(=O)N3CCCCC3)ccc2o1,-0.1%,-0.2,-3.1,71,2,-1
CCCCNC(=O)CCNC(=O)c1ccc(C(C)(C)C)cc1,1.7%,-0.4,-2.6,4,-3,1
CC(C)(C)c1ccc(C(=O)NC(=S)N2CCCC2)cc1,0.9%,1.0,-2.8,-27,-8,-23

# Continuation:
SMILES,PINK1 expr mod,TRPML1 agonist,D2 agonist,TRPML1 blocker,Six1-Eya2 inh,CtBP-E1A inh
O=C(CN(C(=O)c1csnn1)c1cccc2ccccc12)NCc1ccc(F)cc1,-3.0%,-0.3,1.4,23,0,-1
O=C(Nc1ccccc1C(=O)N1CCN(Cc2ccccc2)CC1)c1ccc(F)cc1,11%,0.4,2.9,-2,5,-18
Cc1ccc2oc(=O)c(/C=C(\O)c3ccco3)nc2c1,-1.2%,-0.3,0.0,18,0,1
COC(=O)c1c(NC(=O)CS(=O)(=O)c2ccc(C)cc2)sc2c1CCCC2,-1.6%,1.3,x,-21,x,x
Cc1ccc(C(=O)N2CC(=O)Nc3ccc(F)cc3C2c2ccccc2)cc1 (stereo not drawn),0.6%,-0.2,3.2,-3,3,-18
Cc1ccc(C)c(CSCC(=O)NCc2cccs2)c1,-0.6%,0.0,2.2,5,-1,1
CCCCn1c(SCC(=O)Nc2cc(C)on2)nc2ccccc2c1=O,13%[38.3 µM],0.2,-2.1,-9,-12,15
CCC(=O)c1ccc(OCC(O)Cn2nc(C)c(C(C)=O)c2C)cc1 (stereo not drawn),-1.6%,3.7,0.5,-10,0,3
Cc1nn(-c2ccccc2)c2c1N(CCCC(=O)NCc1ccc(Cl)cc1)C(=O)CS2,1.0%,-1.2,x,4,x,x
CC(C)CN=Cc1c(O)c([N+](=O)[O-])cc2oc3c(c12)CCCC3,9.9%,-0.2,-11,7,13,1
CSCC[C@H](NC(=O)NCc1ccc(F)cc1)C(=O)O,-1.3%,-0.1,-2.6,-2,-5,1
CN(CC(=O)Nc1cccc(F)c1)C(=O)c1cccnc1Sc1ccccc1Cl,-0.1%,0.5,-8.7,-6,17,10
CSc1nc(-c2ccccc2F)c(C#N)c(=O)n1C,0.5%,1.4,1.1,-23,1,-3
Cc1ccc(-n2nc3c(c2NC(=O)c2ccc(S(=O)(=O)N4CCOCC4)cc2)CSC3)c(C)c1,-3.2%[38.3 µM],0.8,-0.5,-1,-5,7

# The order is random; overall some 1% were active at least once.
